# CSC inhib: cancer stem cell inhibition. cancer stem cell-like cells viability, luminescence. inhibition, % at 7.5 µM. 1.1% of 300,000 active. AID 2717;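 active means mean at 75% or more and at least half the replicates too; inconclusive means mean and replicates disagree; tested in HMLE shEcad cells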;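 further: 0% = median of negative and 100% = median of positive control wells; the first replicate is given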
# MT1-MMP act inh: inhibitors of human MT1-MMP activation; P50281; HT1080 RFP-PRO-GFP cells, GFP/RFP ratio fluorescence, overnight; percent of plate control window, DMSO zero; GFP/RFP ratio change, % at 20 µM; 0.061% of 360,000 active; AID 651647;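 active means GFP/RFP ratio change of at least 30% with cell ATP level not reduced by more than half and red fluorescence within 50% of control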; further: strong numbers were not always called active
#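 Material – HT1080 RFP-PRO-GFP cells · Control set – DMSO wells and RFP-L50D-GFP cells · Incubation – overnight cell settling, then overnight compound exposure, 37 °C, 5% CO2 · Compound dosing – single-point 20 µM compound, 1% DMSO · Read-out – GFP/RFP fluorescence ratio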
# Rce1 inh: inhibitors of yeast Ras-converting enzyme; Q03530; yeast membranes, quenched prenylated peptide cleavage fluorescence; calls only; 0.27% of 290,000 active; AID 2563;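 active means fall in fluorescence gain of 50% or more versus controls, with final raw signal at or below 3038400; inconclusive means same 50% fall but final raw signal above 3038400; inactive means fall in fluorescence gain under 50%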;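 further: plate controls were neutral control wells for no effect and wells lacking membranes for full effect; tested at 10 µM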
# Target sequence (Q03530 whole entry, looked up): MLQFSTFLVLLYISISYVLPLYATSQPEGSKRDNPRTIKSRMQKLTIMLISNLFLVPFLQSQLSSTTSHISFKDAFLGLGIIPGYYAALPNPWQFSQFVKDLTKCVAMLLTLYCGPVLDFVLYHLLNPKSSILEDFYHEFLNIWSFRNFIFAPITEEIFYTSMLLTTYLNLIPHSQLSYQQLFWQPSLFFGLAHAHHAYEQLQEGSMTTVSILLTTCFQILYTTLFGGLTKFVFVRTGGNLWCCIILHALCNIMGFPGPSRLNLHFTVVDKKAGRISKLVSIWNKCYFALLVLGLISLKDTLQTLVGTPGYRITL
# eIF4H inh: inhibitors of RNA binding by human eIF4H | Q15056 | inhibition, % at 35 µM | 0.94% of 290,000 active | eIF4H fluorescence polarization binding assay;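 active means 50% or more with normal probe brightness, or confirmed in later tests; inconclusive means above 50% with abnormal brightness, or retests that disagree; inactive means below 50% or failed in later tests; about a fifth of its hits are not listed in these tables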;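 further: calls also rest on retests at 20 µM and on dose response follow-up; 0% = protein and probe with vehicle and 100% = probe without protein; strong numbers were not always called active; many hits fall short of the cut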
# PABP polyA inh: PABP-poly(A) binding inhibition | P11940 | PABP-poly(A) RNA binding, fluorescence polarization | inhibition, % at 35 µM | 1% of 290,000 active;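 active means 50% or more with normal probe brightness, or confirmed in later tests; inconclusive means above 50% with abnormal brightness, or retests that disagree; inactive means below 50% or failed in later tests; about a fifth of its hits are not listed in these tables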;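 further: calls also rest on retests at 20 µM and on dose response follow-up; controls were probe without protein and protein plus probe with vehicle; some compounds called inactive have numbers as strong as hits; many hits fall short of the cut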
# Yeast UUG start: yeast start codon fidelity modulation; AID 602363; activity score, % at 18.7 µM; S. cerevisiae UUG-firefly luciferase reporter, luminescence/redox ratio; 0.13% of 350,000 active;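 active means replicate mean at a twofold rise or more, about +100% in these data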;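 further: firefly luciferase made from a UUG start codon reports start codon fidelity; reporter light over untreated wells divided by growth signal over untreated wells; some hits fall short of that in this replicate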
# Env fusion inh: blocks HIV Env-driven cell-cell fusion; HeLa-JRFL Env/CEM21 cell fusion, luciferase; inhibition, % at 12.3 µM; 1.1% of 360,000 active;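 active means mean replicate inhibition score of at least 50 and every replicate individually at or above 50; inconclusive means only one of the two criteria met; inactive means mean below 50 and not all replicates reaching 50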;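 further: 0% = plate neutral controls and 100% = maraviroc near 300 nM; one replicate is shown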
# MT1-MMP act inh RFP: further read-out of MT1-MMP act inh, marked with its call; RFP signal change, %; measured here: RFP expression control read;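 0 = vehicle wells; hits needed this value within 50% of zero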
# Active calls of the source: *; i = inactive; u = inconclusive; x = no result given; & = joins results of further samples; [ ] = another dose, or the depositor's remark.
1: CCOC(=O)C1CCN(C(=O)c2ccc(Cl)c(NC3=NC4CS(=O)(=O)CC4S3)c2)CC1 (stereo not drawn)
2: Cn1c(CNC(=O)CNC(=O)Cc2ccc(Cl)cc2)cc(=O)n(C)c1=O
3: CCOC(=O)C1(CC2CC2)CCN(Cc2ccc(O)c(Cl)c2)CC1
4: N/C(=N\OC(=O)c1ccc(=O)n(Cc2ccccc2)c1)c1ccccn1
5: Cn1c(SCC(=O)NCc2cccs2)nnc1-c1cccs1
6: COc1ccc(CN(Cc2cccn2C)S(=O)(=O)c2cccc(C(F)(F)F)c2)cc1
7: Cc1cc(NC(=O)CSCC(=O)Nc2ccccc2OC(F)F)no1
8: COc1ccc(OC)c(-c2csc(N(Cc3ccco3)C(=O)c3cccs3)n2)c1
entry no.,1,2,3,4,5,6,7,8
CSC inhib,5.1,-11.9,x,-8.6,-17.6,15.2,-7.5,16.3
MT1-MMP act inh,6.9,1.6,x,-2.3,-3.3,-3.7,2.8,-12.6
MT1-MMP act inh RFP,3.1,-1.3,x,-5.2,2.9,-7.6,-0.3,-11.5
Rce1 inh,i,i,i,i,i,i,i,i
eIF4H inh,5.0,4.2,0.3,-2.3,1.7,-3.3,x,-6.8
PABP polyA inh,27.5,4.1,6.4,7.2,-4.3,3.6,x,-7.1
Yeast UUG start,-17.6,-23.5,x,-8.7,-17.0,-17.8,x,-15.2
Env fusion inh,6.6,-7.7,x,-24.6,-0.5,49.2,-26.9,17.1

9: CCOC(=O)Cc1cc(=O)n2[nH]cc(-c3ccc(Cl)cc3)c2n1
10: CC(C)CNC(=O)CSc1nnc(CN2CCCCCC2=O)n1-c1ccccn1
11: Cc1ccc(NC(=O)CC2SCCNC2=O)cc1Cl (stereo not drawn)
12: CCOC(=O)c1[nH]c2ccc(OC)cc2c1NC(=O)CCN1CCc2ccccc2C1
13: O=C(O)C1=C[C@@H](c2ccccc2)C[C@@H](OCc2ccc(CO)cc2)O1
14: CCCCCC(=O)Nc1ccc(-c2nnc3n2CCCCC3)cc1
15: Cc1ccc(C)c(OCCC(=O)OC(C)C(=O)Nc2c(C)n(C)n(-c3ccccc3)c2=O)c1 (stereo not drawn)
16: O=c1ccc(-c2ccc(S(=O)(=O)Nc3ccc(F)cc3)s2)n[nH]1
entry no.,9,10,11,12,13,14,15,16
CSC inhib,3.1,x,-11.5,x,-12.4,6.6,-7.2,-4.6
MT1-MMP act inh,5.2,-0.3,3.3,1.5,5.8,-1.0,3.4,3.0
MT1-MMP act inh RFP,8.2,2.6,1.9,4.2,4.1,2.7,3.9,2.4
Rce1 inh,i,i,i,i,i,i,x,i
eIF4H inh,15.8,0.7,-7.0,2.5,2.4,0.8,x,-0.9
PABP polyA inh,13.6,-3.1,0.5,-3.1,1.3,1.4,x,11.1
Yeast UUG start,-3.5,-18.7,-12.9,-1.0,-1.1&3.1,-12.0,-9.2,4.4
Env fusion inh,15.0,x,-28.3,x,8.6[16.7 µM],-0.6,-20.3,-9.4

# Molecules from the list above containing two or more sulfur atoms (four):
1: CCOC(=O)C1CCN(C(=O)c2ccc(Cl)c(NC3=NC4CS(=O)(=O)CC4S3)c2)CC1 (stereo not drawn)
5: Cn1c(SCC(=O)NCc2cccs2)nnc1-c1cccs1
8: COc1ccc(OC)c(-c2csc(N(Cc3ccco3)C(=O)c3cccs3)n2)c1
16: O=c1ccc(-c2ccc(S(=O)(=O)Nc3ccc(F)cc3)s2)n[nH]1
entry no.,1,5,8,16
CSC inhib,5.1,-17.6,16.3,-4.6
MT1-MMP act inh,6.9,-3.3,-12.6,3.0
MT1-MMP act inh RFP,3.1,2.9,-11.5,2.4
Rce1 inh,i,i,i,i
eIF4H inh,5.0,1.7,-6.8,-0.9
PABP polyA inh,27.5,-4.3,-7.1,11.1
Yeast UUG start,-17.6,-17.0,-15.2,4.4
Env fusion inh,6.6,-0.5,17.1,-9.4

# Other compounds follow:
17: CN(C(=O)CSc1nnc(COc2ccccc2F)n1N)C1CCCCC1
18: CCOc1ccccc1C(=O)N1CCC(C(=O)c2ccc(F)cc2)CC1
19: O=C(O)C1=C(OCc2ccc(F)c(F)c2)C(=O)NCC1
20: CCC(=O)NNc1ncnc2ccccc12
21: CCOC(=O)COc1ccc(C2CC(C)=NN2c2ccccc2)cc1 (stereo not drawn)
22: Cc1ccsc1CNC(=O)c1c(-c2ccccc2)noc1C
23: Cc1ccc(-c2nc3ccc(Br)cn3c2CC(C)(C)C)cc1
24: CCO[C@@H]1OC(C(=O)O)=C[C@H](C2CCCCC2)[C@H]1CCCO
entry no.,17,18,19,20,21,22,23,24
CSC inhib,-14.2,3.9,-16.2,-7.1,0.1,-7.5,x,-3.1
MT1-MMP act inh,-0.3,-1.6,1.8,-1.1,-2.4,1.1,-3.8,2.1
MT1-MMP act inh RFP,1.9,-2.2,4.4,2.1,-2.0,2.1,-7.2,1.5
Rce1 inh,i,i,i,i,i,i,x,i
eIF4H inh,x,-1.4,9.1,-6.0,-6.0,-11.0,x,0.7
PABP polyA inh,x,-6.3,-3.5,-4.2,-2.8,-11.2,x,2.0
Yeast UUG start,-23.4,1.6,x,-14.6,-7.9,-8.8,27.2,0.2
Env fusion inh,3.7,-38.6,20.1,6.8,18.2,-1.0,10.8,-3.1

25: Cc1cc(Cl)c2cc3ccccc3cc2n1
26: Cc1noc(C)c1COC(=O)c1cccc(S(=O)(=O)N2CCOCC2)c1
27: O=C(Nc1ccccc1N1CCCC1)c1cccnc1
28: CCOC(=O)c1[nH]c(C)c(C(=O)OCC(=O)N2CCc3ccccc32)c1C
29: O=C(c1cnc2sccn2c1=O)N1CCc2ccccc2C1
30: Cc1c(C(=O)O)oc2ccc(S(=O)(=O)N3CCCCC3C(=O)O)cc12 (stereo not drawn)
31: COc1ccc(C(=S)N2CCOCC2)cc1OC(=O)c1ccccc1Cl
32: Cn1nc(C(C)(C)C)cc1C(=O)Nc1nc2c(s1)C(=O)CC(C)(C)C2
entry no.,25,26,27,28,29,30,31,32
CSC inhib,-6.7,7.2,-2.2,12.4,-7.9,-7.3,-8.1,x
MT1-MMP act inh,-2.2,5.8,1.6,1.7,2.0,-2.5,-1.5,-12.8
MT1-MMP act inh RFP,-1.2,-3.6,2.3,5.6,-2.3,3.2,0.6,-13.4
Rce1 inh,i,i,x,x,i,i,i,i
eIF4H inh,-5.5,x,-4.6,-13.2,15.2,-5.8,1.9,-5.4
PABP polyA inh,2.2,x,-5.9,5.6,11.3,15.5,-3.3,12.3
Yeast UUG start,-16.2,-15.0,-23.5,-24.8,-9.5,-12.1,-19.2,3.6
Env fusion inh,7.7,30.9,5.1,x,x,-20.1,-12.6,17.0

33: CC1(C(=O)NS(=O)(=O)c2cccc(F)c2)CCN1C(=O)CCc1ccccc1 (stereo not drawn)
34: Clc1ccc(Cn2nnc(-c3ccc(N4CCOCC4)cc3)n2)cc1
35: C/C(=N\NC(=O)c1c(Cl)c(C)nn1C)c1ccc(NC(=O)COc2ccc(Cl)cc2C)cc1
36: CCOc1nc(NC2CCCCC2)nc(NC(C)(C)C)n1
37: Cc1cc(C)c(C#N)c(SCCN2CCOCC2)n1
38: O=C(CN1CCC(Cc2ccccc2)CC1)NCCc1ccc(F)cc1
39: Cc1ccc(NC(=O)c2ccc(S(=O)(=O)Nc3c(C)n(C)n(-c4ccccc4)c3=O)cc2)nc1
40: COc1ccc(CNC(=O)Cn2c(=O)oc3cc(S(=O)(=O)N4CCCC4)ccc32)cc1
entry no.,33,34,35,36,37,38,39,40
CSC inhib,x,8.1,3.2,-5.9,7.1,11.3,7.6,21.0
MT1-MMP act inh,3.2,1.5,3.2,-3.3,1.3,2.3,1.8,1.9
MT1-MMP act inh RFP,0.0,-2.7,-1.9,-7.8,1.8,7.1,2.1,-5.4
Rce1 inh,x,i,i,i,i,i,i,i
eIF4H inh,x,-1.2,0.2,-12.5,4.8,-1.9,x,-17.7
PABP polyA inh,x,-0.1,-2.4,2.6,10.4,2.7,x,-2.8
Yeast UUG start,2.2,x,-16.7,-2.8,x,x,-12.1,-8.4
Env fusion inh,u,x,x,-24.9,-18.2,-3.2,-2.0,-2.4

41: CCOCc1nnc(NS(C)(=O)=O)s1
42: CNC(=O)c1sccc1Oc1ccc(F)cc1[N+](=O)[O-]
43: CCSC(C)CC1CC(=O)CC(=O)C1 (stereo not drawn)
44: COc1ccc(C(=O)NC(=O)NC2(C(Cl)(Cl)Cl)OCCO2)cc1
45: O=C(CCCOc1ccccc1)N1CCN(c2ccc(F)cc2)CC1
46: O=C(CSc1nnc(-c2ccncc2)o1)NCc1ccc(Cl)cc1
47: O=C(Cn1c(-c2ccccn2)nc2ccccc21)N/N=C/c1cccnc1
48: Cc1ccc(N(C(=O)C2CCC(=O)N2)C2(C(=O)NC3CCCCC3)CCCCC2)cc1 (stereo not drawn)
entry no.,41,42,43,44,45,46,47,48
CSC inhib,-14.5,x,5.6,0.9,-3.2,-17.1,-7.5,-1.6
MT1-MMP act inh,-0.3,-6.1,-6.0,4.4,9.9,-0.7,-0.8,-4.8
MT1-MMP act inh RFP,-1.0,-2.8,2.7,-2.8,4.5,-2.7,-2.1,1.8
Rce1 inh,i,i,i,i,i,i,i,x
eIF4H inh,3.5,-7.6,5.7,1.0,6.5,-9.0,-0.5,-13.5
PABP polyA inh,10.3,4.4,6.2,4.1,4.6,17.4,1.0,-4.5
Yeast UUG start,-5.2,x,12.4,1.3,18.0,x,-14.8,4.2
Env fusion inh,-26.0,0.9,x,-86.1,x,8.6,16.3,-82.4

49: CC1CCCCC1NC(=O)CCn1c(=O)sc2ccccc21 (stereo not drawn)
50: COc1cc(-n2c(=O)c3ccccc3n(Cc3cc(=O)n4ccccc4n3)c2=O)cc(OC)c1OC
51: COc1ccc(N2CCN(C(=O)CSc3nnc(Cn4nnc5ccccc54)n3C)CC2)cc1
52: Cn1nnnc1SCc1cccc(CSc2nnnn2C)n1
53: Cc1ccc(C)c(NC(=O)CN(C)C(=O)C2CCN(S(=O)(=O)c3ccc4c(c3)OCCO4)CC2)c1
54: CC(C)CCNC(=O)C(c1ccc(O)cc1)N(Cc1cccs1)C(=O)C1COc2ccccc2O1 (stereo not drawn)
55: Cc1onc(-c2ccccc2Cl)c1-c1nc(-c2ccncc2)no1
56: Cc1c(C(C)NC(=O)c2cc(COc3cccc4cnccc34)on2)cnn1C (stereo not drawn)
57: Cc1nc2ccccn2c1C(=O)NNC(=O)Nc1ccccc1
58: CNc1ccccc1C(C)(C)c1cc(C)[nH]n1
59: O=C(NCc1cccnc1)c1ccc(Cn2c(=S)[nH]c3ccc(Br)cc3c2=O)cc1
entry no.,49,50,51,52,53,54,55,56,57,58,59
CSC inhib,-7.5,-3.5,0.4,-9.6,-3.6,3.3,1.8,-13.9,2.3,-5.6,4.1
MT1-MMP act inh,-1.5,-5.1,3.0,1.7,3.7,-18.9,-5.1,1.1,-1.3,7.0,-1.0
MT1-MMP act inh RFP,1.4,4.7,7.2,5.9,-0.7,-18.4,-3.7,-27.0,0.9,6.0,-6.6
Rce1 inh,i,i,i,i,i,i,i,i,i,i,i
eIF4H inh,-8.3,8.5,-0.3,4.3,x,7.1,-0.7,-5.0,-23.4,-0.2,-7.5
PABP polyA inh,-0.6,-1.9,0.5,3.4,x,-2.8,-0.8,-5.2,-0.4,4.5,-8.1
Yeast UUG start,-12.7,x,-6.9,2.4,x,x,-5.8,-19.2,-30.3,x,-18.5
Env fusion inh,-6.7,x,-14.3,x,2.5,7.2,x,35.3,-14.1,7.0,12.1

# Bioassay records: PubChem, several laboratories

# This is a subset, so the mix of outcomes need not match the whole.
